Screening results from PubChem.
FEN1 inhibitor – inhibitors of human flap endonuclease 1; Recombinant FEN1 flap cleavage, fluorescence, 15 min; Potency, µM (doses to about 114 µM), inactives show top-dose activity change, negative = inhibition, usual class: inhibitors; actives 0.35% (n = 390,000); note: nearly all actives have a fitted effect of over 65% in size
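In this screen, 50 nM flap DNA substrate was added to 10 nM FEN1 pretreated with compound for 15 min at room temperature; cleavage was followed with reads at 0 and 15 min, and Hill fitting gave concentration–response parameters.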
KAT2A inh – GCN5L2 (KAT2A) acetyltransferase inhibition | AID 504327 | actives 0.21% (n = 390,000) | Potency, µM (series often up to 58.9 µM), without a hit: at the top dose activity change, negative = inhibition, most hits filed as inhibitors | GCN5L2 HAT assay, ThioGlo1 CoA-SH fluorescence
Target sequence (Q92830 whole entry, looked up): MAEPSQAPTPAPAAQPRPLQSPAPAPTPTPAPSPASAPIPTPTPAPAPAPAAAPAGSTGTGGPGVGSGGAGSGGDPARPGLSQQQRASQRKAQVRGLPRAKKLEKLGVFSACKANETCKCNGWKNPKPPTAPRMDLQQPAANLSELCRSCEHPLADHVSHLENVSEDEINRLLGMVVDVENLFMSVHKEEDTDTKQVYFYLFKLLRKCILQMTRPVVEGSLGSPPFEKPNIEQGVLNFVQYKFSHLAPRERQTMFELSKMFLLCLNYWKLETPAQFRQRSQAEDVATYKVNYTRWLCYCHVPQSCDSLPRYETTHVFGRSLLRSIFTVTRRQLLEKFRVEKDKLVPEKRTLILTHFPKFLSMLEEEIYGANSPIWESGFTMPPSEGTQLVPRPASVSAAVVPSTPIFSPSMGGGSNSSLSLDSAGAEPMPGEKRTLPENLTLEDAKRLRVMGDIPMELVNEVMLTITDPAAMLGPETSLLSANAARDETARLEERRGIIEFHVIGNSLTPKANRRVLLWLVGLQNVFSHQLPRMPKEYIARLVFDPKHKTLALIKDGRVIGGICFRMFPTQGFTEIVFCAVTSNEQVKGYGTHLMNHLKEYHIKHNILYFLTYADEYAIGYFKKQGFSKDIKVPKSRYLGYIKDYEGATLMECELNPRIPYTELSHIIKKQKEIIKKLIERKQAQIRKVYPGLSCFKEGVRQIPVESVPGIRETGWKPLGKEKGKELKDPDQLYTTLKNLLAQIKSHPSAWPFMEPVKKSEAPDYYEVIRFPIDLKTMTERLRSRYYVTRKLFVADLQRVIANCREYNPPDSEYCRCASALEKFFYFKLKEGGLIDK
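GCN5L2 (20nM final) in 50mM HEPES, 0.1mM EDTA pH 7.5, 0.01% Tween-20 was preincubated 15 min at room temperature with compound, then given ThioGlo1 (50uM), H3(1-25) peptide (75uM) and acetyl-CoA (70uM); CoA-thiol fluorescence (Ex340/Em540) was read at 0 and 20 min.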
Active calls of the source: *; ? = inconclusive; / = no result given; [ ] = another dose, or the depositor's remark. Calls come from the whole dose curve; as a rule, active = well fitted curve in the direction sought with a large enough effect; inconclusive = small, poorly fitted or top-dose-only effect, or another doubt; inactive = no such curve, though single readings can be large; an effect the other way counts as inactive or inconclusive. % is set by controls: 0 for no effect and ±100 for the full control effect; potency is the fitted concentration of half-maximal effect. An excerpt; most or all hits stand in other tables.

FEN1 inhibitor | KAT2A inh | structure
7% | 3% | CC(=O)c1ccc(N2CCN(CC(=O)NC(=O)NCc3ccccc3)CC2)cc1
/ | -6%[21.4 µM] | CC[C@H](c1ccc(O)cc1)[C@@H](CC)c1ccc(O)cc1
7% | -2% | CCc1ccccc1Nc1cc(C(=O)NCCCN(C)C2CCCCC2)c2ccccc2n1
-21% | -16% | CCc1ccc(-c2cc(C(=O)N3N=C(C(F)F)CC3(O)C(F)F)c3ccccc3n2)cc1 (configuration not stated)
9% | 0% | C#CCOCCOCCOCCNc1nc(N2CCOCC2)nc(N2CCN(C(=O)[C@H](CCCN=C(N)N)n3cc(C(N)[C@@H](C)CC)nn3)CC2)n1 (some centres not stated)
-1% | -2% | Cc1ccc(-c2csc3ncnc(N4CCN(Cc5ccccc5)CC4)c23)cc1
-1% | 1% | CC(=O)Nc1ccc(NC(=O)Nc2cccc(C)c2C)cc1
3% | 3% | Cc1noc(C)c1CSc1nc2[nH]ncc2c(=O)n1-c1ccccc1
12% | -4% | CC(C)(C)C(=O)/C=C/c1ccc(Oc2ccccc2)cc1
-6% | 2% | CC(=O)N1CCc2ccc(NC(=O)c3c(-c4c(Cl)cccc4Cl)noc3C)cc21
1% | -3% | O=C1CC(N2CCN(c3ccc(F)cc3)CC2)C(=O)N1c1ccc2c(c1)OCO2 (configuration not stated)
-7% | -17% | O=C(O)c1c(Cl)c(Cl)c(Cl)c(Cl)c1C(=O)N1CCCCCC1
? | -7%[0.501 µM] | CCCN(CCC)S(=O)(=O)c1ccc(NC(=O)COc2ccccc2)cc1
-9% | -2% | Cc1ccc(C(=O)OCC(=O)N(Cc2ccccc2)C(C)C)cc1C
-11% | 2% | Cc1ccc(C)c(CN2C(=O)C(O)(c3c(C)[nH]c4ccccc34)c3ccccc32)c1 (configuration not stated)
-21% | -2% | Cc1cc(C(=O)OCC(=O)Nc2cc(C(F)(F)F)ccc2N2CCOCC2)c(C)o1
5% | -2% | N#Cc1cnn(-c2ccc(F)cc2)c1N
-2% | -1% | COC(=O)CNC(=O)Cn1cnc2sc(C)c(S(=O)(=O)N3CCC(C)CC3)c2c1=O
11% | -1% | Cc1ccc(N=C2SC(C(=O)NCCc3ccccc3)CC(=O)N2C)cc1C (configuration not stated)
11% | -1% | O=C(CSc1ncnc2ccccc12)NCc1ccc2c(c1)OCO2
8% | -5% | Cc1ccc(N/C(=N/S(=O)(=O)c2cccs2)c2ccccc2)c(C)c1
-13% | -11% | C=CCOc1c2ccc(C(=O)NCc3ccc(C)cc3)cc2nn1C
-20% | -7% | COc1cc(/C=C/c2nc(C#N)c(NCCc3ccccc3)o2)cc(OC)c1OC
2% | 29% | CN(C)C(=O)CN1CCN(Cc2cn(C)nc2-c2ccc3c(c2)OCCO3)CC1
-14% | -2% | COc1ccccc1NC(=O)CSC1=Nc2ccccc2C2=NC(CC(=O)NCc3ccccc3)C(=O)N12 (configuration not stated)
-6% | -15% | C/C=C/c1ccc(OCCCNC)c(OC)c1
0% | -3% | Cc1ccc(S(=O)(=O)N2CCC(C(=O)NNC(=O)c3cccnc3)CC2)cc1
7% | 2% | COc1cc(/C=N/NC(=O)c2cccnc2)ccc1OC(=O)c1cccc(Br)c1
-6% | -6% | O=C(Cn1nc(C(F)(F)F)c2c1CCCC2)Nc1cccc(Cl)c1
-3% | -5% | COc1cccc(-c2c(NC(=O)c3ccco3)n(-c3ccc(C)cc3)nc(C)c2=O)c1
-12% | -8% | Cc1ccc(-n2ncc3c(N4CCN(Cc5ccccc5)CC4)ncnc32)cc1C
9% | 2% | Cc1c(/C=N/NC(=O)C(C)(C)Oc2ccc(Cl)cc2)cnn1C
2% | -5% | CC1CCCC2(C1)NC(=S)N(c1ccccc1)N2 (configuration not stated)
18% | -16% | Cc1ccc(N2CC(NC(=O)CCc3ccccc3)CC2=O)cc1 (configuration not stated)
-15% | 0% | COC(=O)c1ccc(C(=O)OC)c(NC(=O)COC(=O)C23CC4CC(CC(O)(C4)C2)C3)c1
5% | -5% | CCc1cc(Br)ccc1N1C(=O)C2CC=CCC2C1=O (configuration not stated)
3% | -1% | Nn1c(SCC(=O)Nc2ccccc2)nnc1-c1cccnc1
-13% | -11% | COc1ccccc1C(=O)Nc1ccccc1N1CCN(S(C)(=O)=O)CC1
-3% | 1% | Cn1c(SCC(=O)Nc2nccs2)nnc1-c1ccco1
16% | 1% | O=C(Cc1cc(=O)[nH]c(=O)[nH]1)NCCN1CCOCC1

Random excerpt: 2 compounds from above
FEN1 inhibitor | KAT2A inh | structure
9% | 2% | Cc1c(/C=N/NC(=O)C(C)(C)Oc2ccc(Cl)cc2)cnn1C
5% | -5% | CCc1cc(Br)ccc1N1C(=O)C2CC=CCC2C1=O (configuration not stated)

Full records, quoted from the list.
`COc1cc(/C=C/c2nc(C#N)c(NCCc3ccccc3)o2)cc(OC)c1OC` reads FEN1 inhibitor = -20%; KAT2A inh = -7%
`COc1cccc(-c2c(NC(=O)c3ccco3)n(-c3ccc(C)cc3)nc(C)c2=O)c1` reads FEN1 inhibitor = -3%; KAT2A inh = -5%
`COc1cc(/C=N/NC(=O)c2cccnc2)ccc1OC(=O)c1cccc(Br)c1` reads FEN1 inhibitor = 7%; KAT2A inh = 2%

New compounds follow
FEN1 inhibitor | KAT2A inh | structure
7% | -1% | CCOC(=O)CSc1nnc(-c2cccc(Cl)c2)n1CC
-2% | -5% | O=C(NC1CCCCC1)c1cc(S(=O)(=O)N2CCCC2)ccc1Cl
6% | 4% | CCOC(=O)C(C)Oc1nc(Oc2ccccc2)nc(N(C)C)n1 (configuration not stated)
6% | -3% | COc1ccc(Cl)cc1NC(=O)c1nnn(Cc2cccc(C(F)(F)F)c2)c1N
-11% | -27% | Cc1ccc(NC(=O)c2ccc3c(O)c(S(=O)(=O)c4ccccc4)c(=O)[nH]c3c2)cc1Cl
-2% | -2% | CC1CN(C(=S)NC(=O)c2ccco2)CC(C)O1 (configuration not stated)
7% | -13% | Cc1c(C(=O)N2CCN(c3ccccc3)CC2)oc2c1C(=O)CC(C)(C)C2
-10% | -5% | CCOc1ccc(C2/C(=C(\O)c3ccc(OC)c(OC)c3)C(=O)C(=O)N2c2cc(C)on2)cc1OC (configuration not stated)
-7% | -4% | Cc1cc(Cl)ccc1NC(=S)N1CCOCC1
-11% | -9% | CCOC(=O)c1sc(NC(=O)CCN2CCN(CC)CC2)c(C(=O)OCC)c1C
-11% | 0% | Cc1cc(/C=N/n2cnnc2)c(C)n1-c1cc(Cl)ccc1Cl
-7% | -7% | CCN(CCO)c1ncnc2c1sc1nc(CC(C)C)c3c(c12)CC(C)(C)OC3
-16% | -16% | Cc1ccc(C(=O)N/C(=C\c2ccc(-c3cc(Cl)ccc3Cl)o2)C(=O)NCc2cccnc2)cc1
3% | 0% | O=C1CC(C(=O)N2CCN(S(=O)(=O)c3cccc(F)c3)CC2)CN1Cc1ccccc1Cl (configuration not stated)
0% | -15% | CCCCNC(=O)c1cn(CC)c2cc(N3CCN(C(=O)c4ccco4)CC3)c(F)cc2c1=O
7% | -3% | O=C1CCCC2=C1C(c1ccccc1)C1C(=O)c3ccccc3C1=N2 (configuration not stated)
-1% | / | O=C1O[C@@H]([C@H](O)CO)C(O)=C1O
-4% | -5% | CN1CCCN(C(=O)c2ccc(Br)cc2)CC1
-7% | -1% | Cc1cccc(NC(=O)C2SC(=Nc3c(C)cccc3C)C(C(=O)N3CCOCC3)=C2N)c1 (configuration not stated)
4% | -6% | CS(=O)(=O)N(CC(=O)N1CCN(Cc2ccccc2)CC1)Cc1ccccc1

Reformatted with two lines to a compound: part of the list above
Values in the order – FEN1 inhibitor, KAT2A inh
Cc1cc(/C=N/n2cnnc2)c(C)n1-c1cc(Cl)ccc1Cl
  -11%, 0%
CCN(CCO)c1ncnc2c1sc1nc(CC(C)C)c3c(c12)CC(C)(C)OC3
  -7%, -7%
Cc1ccc(C(=O)N/C(=C\c2ccc(-c3cc(Cl)ccc3Cl)o2)C(=O)NCc2cccnc2)cc1
  -16%, -16%
O=C1CC(C(=O)N2CCN(S(=O)(=O)c3cccc(F)c3)CC2)CN1Cc1ccccc1Cl (configuration not stated)
  3%, 0%
CCCCNC(=O)c1cn(CC)c2cc(N3CCN(C(=O)c4ccco4)CC3)c(F)cc2c1=O
  0%, -15%
O=C1CCCC2=C1C(c1ccccc1)C1C(=O)c3ccccc3C1=N2 (configuration not stated)
  7%, -3%

Back to the main list; the five compounds before the break are reprinted first.
FEN1 inhibitor | KAT2A inh | structure
7% | -3% | O=C1CCCC2=C1C(c1ccccc1)C1C(=O)c3ccccc3C1=N2 (configuration not stated)
-1% | / | O=C1O[C@@H]([C@H](O)CO)C(O)=C1O
-4% | -5% | CN1CCCN(C(=O)c2ccc(Br)cc2)CC1
-7% | -1% | Cc1cccc(NC(=O)C2SC(=Nc3c(C)cccc3C)C(C(=O)N3CCOCC3)=C2N)c1 (configuration not stated)
4% | -6% | CS(=O)(=O)N(CC(=O)N1CCN(Cc2ccccc2)CC1)Cc1ccccc1
-6% | -10% | O=C(N[C@H]1C/C=C\C[C@H](CC(=O)N(CCO)Cc2ccccc2)C(=O)N[C@H](Cc2c[nH]c3ccccc23)COC1=O)OCC1c2ccccc2-c2ccccc21
1% | / | CC(=O)Nc1ccc(S(=O)(=O)Nc2nccc(C3Cc4ccccc4C(=O)O3)n2)cc1 (configuration not stated)
2% | 0% | CCn1cc(C(=O)N2CCN(Cc3ccc4c(c3)OCO4)CC2)c(=O)c2ccc(C)nc21
-5% | -1% | Cc1c(Cl)ccc(S(=O)(=O)NCCCn2ccnc2)c1Cl
-4% | 4% | COC(=O)c1cc(N2CCN(C)CC2)nc2ccccc12
0% | -3% | COc1ccc(S(=O)(=O)N2CCOCC2)cc1NC(=O)COc1ccc2ccc(=O)oc2c1
-1% | -10% | COc1cc(C)ccc1OCCCON1C(=O)CCC1=O
11% | 2% | Cn1nc(-c2ccccc2)c(C(=O)NCC(=O)O)c1Cl
13% | 1% | O=C(CC(=O)N/N=C/c1c(F)cccc1Cl)NCc1ccccc1
-11% | 0% | Cc1ccccc1NC(=O)N1C2CCCC1CC(NC(=O)C1CC1)C2 (configuration not stated)
-5% | 1% | N=c1c2c(n(Cc3ccc([N+](=O)[O-])cc3)c3c1CCC3)CCCC2
-14% | -8% | CN1CCN(S(=O)(=O)c2ccc(N(C)Cc3ccc(OC(F)F)cc3)c([N+](=O)[O-])c2)CC1
9% | 6% | O=C(/C=C\NCC(=O)c1ccccc1)c1ccc(F)cc1
13% | -1% | Cc1ccc(N2CCN(C(=O)c3ccccc3)CC2)c(C)c1
-1% | -7% | Cc1cc(C)n2nc(CNC(=O)c3c(F)cccc3F)nc2n1
-7% | 2% | COCCN1CCn2c(nc3cc(NC(=O)c4cccs4)ccc32)C1
9% | -4% | Cc1ccc(S(=O)(=O)NC(CC(C)C)C(=O)NCC(C)(C)N2CCOCC2)cc1 (configuration not stated)
3% | -8% | COc1ccc(C(=O)NC(=S)Nc2ccc(NC(=O)c3ccco3)cc2)cc1[N+](=O)[O-]
-7% | -17% | Cc1ccc(OCC(=O)Nc2cccc(O)c2)cc1C
18% | -7% | CNC(=O)COc1coc(CN2CCN(c3cccc(Cl)c3)CC2)cc1=O
0% | -3% | O=C(/C=C/c1ccccc1)Oc1ccc(C(=S)N2CCOCC2)cc1
18% | 0% | CCOc1ccccc1CNC(=O)CN(c1ccc(C)cc1)S(=O)(=O)N(C)C
19% | 2% | O=C1CSc2ccc(S(=O)(=O)NCc3ccc(F)cc3)cc2N1
-1% | -10% | Cc1ccccc1Nc1cc2ccccc2c(=O)[nH]1
3% | -1% | C=CCn1c(SC2CCOC2=O)nc2sc(C)c(C)c2c1=O (configuration not stated)
-20% | -6% | Cc1cc(=O)n(C)c(=O)n1CCCCOc1cccc([N+](=O)[O-])c1
-4% | 17% | CS(=O)(=O)N1CCN(C(=O)NC2CCCCC2)CC1
